# HPGD inh = blocks human HPGD enzyme activity; 4.3% of 150,000 active; Potency, µM, without a hit: at the highest dose activity change, negative = inhibition, usual class: inhibitors; AID 894; purified HPGD, NADH fluorescence kinetic, PGE2 substrate; active = well fitted inhibition curve with a large enough effect (not every such curve was filed as active); inconclusive = small, poorly fitted or top-dose-only effect, or another doubt; inactive = no such curve, though single readings can be large or run the other way;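 note: top concentration of the series not given in the record; plate controls included wells without enzyme; inactives centre near -10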
# Target sequence (P15428 whole entry, looked up): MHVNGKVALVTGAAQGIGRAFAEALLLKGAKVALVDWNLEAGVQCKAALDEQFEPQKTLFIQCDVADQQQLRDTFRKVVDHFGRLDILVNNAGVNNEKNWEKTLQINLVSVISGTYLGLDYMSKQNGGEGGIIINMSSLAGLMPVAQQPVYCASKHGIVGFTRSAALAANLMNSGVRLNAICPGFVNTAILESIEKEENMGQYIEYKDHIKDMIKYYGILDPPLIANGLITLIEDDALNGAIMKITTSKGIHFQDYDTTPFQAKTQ
#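 NADH formation kinetics: reaction with 30 uM PGE2 and 1 mM NAD+ (final), 20 nM enzyme, Tris-HCl pH 8 with Tween 20, after 15 min compound preincubation at room temperature. Fluorescence change, last versus first of five reads.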
# * marks the source's active call; other numbers are inactive results; ? = inconclusive; & = joins results of further samples; ! = a repeat was not active. % is set by controls: 0 for no effect and ±100 for the full control effect; potency is the fitted concentration of half-maximal effect.
SMILES,HPGD inh
O=C(Cc1ccc(Br)cc1)N1CCN(Cc2ccccc2)CC1,?
Cc1cc(Cl)ccc1N=Cc1c(O)n(C)c(=O)n(C)c1=O,?
Cc1cccc(-n2c(C)nc3ccccc3c2=O)n1,-4%
c1cnc(N2CCCC3(CCNCC3)C2)nc1,-17%
CCCCn1c(O)c(C(CC)=NCCN2CCOCC2)c(=O)[nH]c1=O,-13%
CC(C)[C@@H](Br)C(=O)NCC(=O)O,-3%
Oc1cc2c(cc1O)[C@H]1c3ccccc3CN[C@H]1CC2,8.9µM*
O=c1cccc2n1CC1CC2CN(c2ncnc3c2cnn3-c2ccccc2)C1 (configuration not stated),-8%
CN(C)C(=O)Oc1ccc(OCc2n(C)c3ccccc3[n+]2C)cc1,-3%
CCOC(=O)c1c(C)n(Cc2ccccc2)c2ccc(OCC(O)Cn3nc(C)nc3C)cc12 (configuration not stated),-17%
CC1(C)C2CC=C(CN3CCOCC3)C1C2 (configuration not stated),6%
O=c1c2cc(N3CCOCC3)ccc2[nH]c(=S)n1Cc1ccc(Cl)cc1,?
CCOC(=O)c1c(N)n(Cc2ccco2)c2nc3ccccc3nc12,?
CC(C)(c1ccc(OCC2CO2)cc1)c1ccc(OCC2CO2)cc1 (configuration not stated),?
Cc1ccc(N2C(=O)NC(=O)/C(=C\c3cnc(-c4ccccc4)nc3)C2=O)cc1,?
c1ccc(N2CCC3(CCNCC3)CC2)cc1,-2%
Cc1nnc(SCc2nc3ccccc3c(=O)n2-c2ccccc2Cl)n1N,-1%
Cc1nn(Cc2ccccc2)c(Cl)c1C(=O)Nc1ccc(OC(F)(F)F)cc1,-8%
COc1cc(CCN)ccc1O,-16%
O=C1CS[C@@H](c2ccccc2Cl)c2cc(Cl)ccc2N1,-20%
O=[As](O)(O)c1ccc(NCc2ccccc2)cc1,0%
Oc1ccc(Cl)cc1CN1CCN(Cc2ccccc2)CC1,0%
CN1C(=O)C(=Cc2ccc(-c3cccc(Cl)c3)o2)C(=O)N(C)C1=O,7.9µM*
O=S(=O)(Nc1nccs1)c1ccc([As](=O)(O)O)cc1,-9%
COc1ccc(CCNCc2ccncc2)cc1,4%
# Next part:
SMILES,HPGD inh
O=C(Cn1ncc2ccccc21)N1CCC2(CC1)OCCO2,-6%
Cc1ccc(C2(c3ccc(C)c(O)c3C)CCN(C)CC2)c(C)c1O,-8%
CC(C)(C)c1ccc(CN2C(=O)CN=C(c3ccccc3)c3ccccc32)cc1,-18%
COc1ccc(C2N3CC(C)(C)CN23)cc1 (configuration not stated),3%
COc1ccc(CCNCc2ccc(F)cc2)cc1OC,-4%
CC(C)NC(C)C,-8%
CC(C)CNC(=O)c1c(N)n(Cc2ccc3c(c2)OCO3)c2nc3ccccc3nc12,?
CCN1C(=O)/C(=C/c2ccc3c(c2)CCN3CCCCl)C(=O)NC1=S,7.9µM*
C[C@@]12Cc3cnc(-c4ccccc4)nc3C[C@@H]1CC[C@@H]1[C@H]3CC[C@@](C)(O)[C@]3(C)CC[C@@H]12,-9%
CCn1c(O)c(C(=O)CC2NCCc3ccccc32)c(=O)n(CC)c1=S (configuration not stated),-14%
Cc1ccc(N2C(=O)NC(=O)/C(=C\c3cc(C)n(-c4sc5c(c4C#N)CCCC5)c3C)C2=O)cc1,10µM*
Clc1ccc(-c2nc3ccc(Cl)cn3c2CN2CCOCC2)cc1,-21%
CCN1C(=O)NC(=O)/C(=C\c2ccc(N3CCOCC3)cc2OC)C1=O,?
O=[N+]([O-])c1ccc(Nc2ccccc2)cc1,?
CCN[C@]1(c2cccs2)CCCCC1=O,-2%
ClCCNc1nc2ccc(Cl)cc2[nH]1,-5%
CCC(C)(C)n1nnnc1C(c1cccs1)N1CC=C(c2ccc(F)cc2)CC1 (configuration not stated),-4%
CCNC(C)(C)[C@@H](SS)c1ccc(Br)cc1,3.2µM*
c1cc(CCN2CCCCC2)ccn1,-5%
C=C1C2C[C@]3(C4CC5[C@@]6(C)CC[C@H](O)[C@@]5(C3CC2=O)C4[N+]([O-])(CC)C6)[C@@H]1O (some centres not stated),-3%
N=c1c2c(n(Cc3ccc(Cl)cc3Cl)c3c1CCC3)CCCC2,6%
Cc1cc(C)cc(N2C(=O)NC(=O)/C(=C\C=C\c3ccco3)C2=O)c1,10µM*
C[N+]1(C)CCc2cc3c(cc2C1C1OC(=O)c2c1ccc1c2OCO1)OCO3 (configuration not stated),-11%
CN1C(=O)N(C)C(=O)C2(Cc3c(nc4ccccn4c3=O)N3CCC(Cc4ccccc4)CC32)C1=O (configuration not stated),-4%
CC(C)Cc1nnc(NC(=O)CCC(=O)N2CCN(CCOC(c3ccccc3)c3ccccc3)CC2)s1,1%

# Pulled by compound from above, 2 records:
SMILES,HPGD inh
CCOC(=O)c1c(C)n(Cc2ccccc2)c2ccc(OCC(O)Cn3nc(C)nc3C)cc12 (configuration not stated),-17%
CC1(C)C2CC=C(CN3CCOCC3)C1C2 (configuration not stated),6%

# The listing picks up, repeating the 3 entries before the break.
SMILES,HPGD inh
C[N+]1(C)CCc2cc3c(cc2C1C1OC(=O)c2c1ccc1c2OCO1)OCO3 (configuration not stated),-11%
CN1C(=O)N(C)C(=O)C2(Cc3c(nc4ccccn4c3=O)N3CCC(Cc4ccccc4)CC32)C1=O (configuration not stated),-4%
CC(C)Cc1nnc(NC(=O)CCC(=O)N2CCN(CCOC(c3ccccc3)c3ccccc3)CC2)s1,1%
CC[N@+]1(C)CCC[C@@H](OC(=O)C(O)(c2ccccc2)c2ccccc2)C1,-4%
O=C1C(=O)c2cccc3cccc1c23,-22%
C=C1C/C(=C\C)C(=O)O[C@@H]2CCN3CC=C(COC(=O)[C@@]1(C)O)[C@H]23,3%
COc1cccc(-c2cc(C(F)(F)F)n3nc(C(=O)N4CCC5(CC4)OCCO5)cc3n2)c1,11µM*
O=C(Nc1nnc(SCc2ccccc2Cl)s1)C1COc2ccccc2O1 (configuration not stated),16µM*
Fc1ccc(C(OCCN2CCCC2)c2ccc(Br)cc2)cc1 (configuration not stated),-15%
O=c1[nH]c(=O)n(-c2cccc(Cl)c2)c(O)c1/C=N/c1ccccn1,-8%
O=C1CC[C@@]2(O)[C@H]3Cc4ccc(O)c5c4[C@@]2(CCN3CC2CC2)[C@H]1O5,-5%
C=C[C@H]1CN2CCC1C[C@@H]2C(O)c1ccnc2ccccc12 (some centres not stated),-3%
CC1=CC(=O)C2=C(C)C[C@H](O)[C@H]3[C@H](C)C(=O)O[C@@H]3C12 (some centres not stated),1%
CC[N+](CC)(CC)CCCOC(=O)C(O)(c1ccccc1)C1CCCCC1 (configuration not stated),-1%
Oc1ccc(Cl)cc1,-6%&-5%
COC(=O)C1C(OC(=O)c2ccccc2)CC2CCC1N2C (configuration not stated),-1%
CCN1CCN(CC(=O)c2c(C)n(Cc3ccccc3)c3ccc(OC)cc23)CC1,-4%
Cc1ccc2c(c1)C1CN(C)CCC1N2C(=O)Cc1cccs1 (configuration not stated),-1%
CN(C(=O)Cc1ccc(Cl)c(Cl)c1)[C@@H](CN1CCCC1)c1cccc(OCC(=O)O)c1,-7%
CC[n+]1c(-c2ccccc2)c2cc(N)ccc2c2ccc(N)cc21,35µM*!
O=C(C1CC(=O)N(C2CCCCC2)C1)N1CCC2(CC1)OCCO2 (configuration not stated),-9%
CCCCP(=O)(O)c1ccccc1,-10%
O=c1[nH]c(=O)n(Cc2ccc(F)cc2)c(O)c1C=NCCCn1ccnc1,-21%
CCC(C)n1c(O)c(/C=N/Nc2ccccc2)c(=O)[nH]c1=S (configuration not stated),-23%
CCC(=NCc1cc(OC)cc(OC)c1)c1c(O)n(C)c(=O)n(C)c1=O,-20%
C=CCN1C(=O)NC(=O)/C(=C/c2cc3c4c(c2)CCCN4CCC3)C1=O,14µM*
O=C(c1cc(-c2cccnc2)nc2ccc(Cl)cc12)N1CCC2(CC1)OCCO2,-9%
CCCCN1CCC(O)(c2ccccc2)C(C(=O)c2ccccc2)C1 (configuration not stated),-22%
# Carrying on.
SMILES,HPGD inh
CC(=O)Nc1cc(C(=O)N2CCC3(CC2)OCCO3)ccc1S(=O)(=O)c1ccc(Cl)cc1,-4%
N#Cc1ccccc1Cn1cc(C(=O)c2ccccc2F)c2ccccc21,-17%
CN1CCC(N(C)c2nc(-c3ccccc3)nc3ccccc23)CC1,-16%
O=C(Cc1ccccc1)OCn1nnc2ccccc2c1=O,-23%
Cc1cnc[nH]1,-14%
c1ccc2oc(N3CCNCC3)nc2c1,-14%
C=C1CCC(O)C/C1=C\C=C1/CCCC2(C)C1CCC2C(C)CCCC(C)C (configuration not stated),-5%
CC(C)CNCCc1ccccn1,-3%
CC(C)CN1CCCC2(CCN(C(=O)Oc3ccccc3)CC2)C1,-12%
O=C1N=c2ccccc2=C/C1=C\c1c(O)[nH]c(=S)[nH]c1=O,-30%
C=CCn1c(O)c(C(CC)=NCCCO)c(=O)[nH]c1=O,-4%
COc1cc2c(cc1OC)-c1c(O)c(OC)cc3c1[C@H](C2)N(C)CC3,?
CC(C)C(OC(=O)c1ccco1)C(=O)NCc1ccco1 (configuration not stated),?
CCOC(=O)c1c(C)n(Cc2ccccc2)c2ccc(OCC(O)CN3C(=O)CNC3=O)cc12 (configuration not stated),-9%
O=c1c2ccccc2nc(CN2CCCCCC2)n1-c1ccc(F)cc1,2%
CN1CC[C@@]2(CCCN(C(=O)c3ccncc3)C2)C1,-1%
Cc1cccc2c3c(ccc12)C1=C(C(=O)C3=O)C(C)CO1 (configuration not stated),18µM*
CC(=O)N1CCC2(CC1)CC(=O)c1cc(OCC(=O)N3CCN(C)CC3)ccc1O2,?
CN1[C@@H]2CC[C@H]1CC(OC(c1ccc(F)cc1)c1ccc(F)cc1)C2 (some centres not stated),-9%
CC([C@H](O)c1ccccc1)N(C)C (some centres not stated),-1%
O=C(C1CCC(=O)N1C1CCCC1)N1CCC2(CC1)OCCO2 (configuration not stated),-12%
O=C(NC1CC1)C1CSC(c2cccnc2)=N1 (configuration not stated),-6%
Cc1cccc(OP(=O)(NCc2ccccc2)Oc2cccc(C)c2)c1,-15%
CC1=NCCc2c1[nH]c1cc(O)ccc21,?
CN(C)C(=O)Oc1cccc(OCc2n(C)c3ccccc3[n+]2C)c1,-15%

# Entries listed so far that contain an aryl methoxy group, in the order listed:
SMILES,HPGD inh
COc1cc(CCN)ccc1O,-16%
COc1ccc(CCNCc2ccncc2)cc1,4%
COc1ccc(C2N3CC(C)(C)CN23)cc1 (configuration not stated),3%
COc1ccc(CCNCc2ccc(F)cc2)cc1OC,-4%
CCN1C(=O)NC(=O)/C(=C\c2ccc(N3CCOCC3)cc2OC)C1=O,?
COc1cccc(-c2cc(C(F)(F)F)n3nc(C(=O)N4CCC5(CC4)OCCO5)cc3n2)c1,11µM*
CCN1CCN(CC(=O)c2c(C)n(Cc3ccccc3)c3ccc(OC)cc23)CC1,-4%
CCC(=NCc1cc(OC)cc(OC)c1)c1c(O)n(C)c(=O)n(C)c1=O,-20%
COc1cc2c(cc1OC)-c1c(O)c(OC)cc3c1[C@H](C2)N(C)CC3,?

# Going on with the list.
SMILES,HPGD inh
C[C@@]12CC[C@H]3[C@@H](CC[C@@H]4C[C@H]5S[C@H]5C[C@]43C)[C@H]1CC[C@H]2O,-1%
Cc1nn(Cc2ccccc2)c(Cl)c1C(=O)OCC(=O)Nc1cccc2ccccc12,-4%
COc1cc(OC)c(/C=C2/C(=O)Nc3ccccc32)c(OC)c1,?
CCC1(c2ccccc2)C(=O)N(C)C(=O)N(C)C1=O,5%
CC/C(CC(c1ccccc1)c1c(O)c2ccccc2oc1=O)=N\NC(N)=S (configuration not stated),-12%
CCn1c(O)c(C=Nc2ccc(S(N)(=O)=O)cc2)c(=O)[nH]c1=S,-16%
ClC(Cl)=C(Cl)Cl,-5%&-13%
C=CCN1C[C@H](C)N([C@H](c2ccc(C(=O)N(CC)CC)cc2)c2cccc(O)c2)C[C@H]1C,11µM*
Oc1ccc2c3c1O[C@H]1[C@@H](O)CC[C@]4(O)[C@H](C2)N(CC2CCC2)CC[C@@]314,-16%
Cc1ccc(N2C(=O)/C(=C/c3ccc(CN(CCC#N)S(C)(=O)=O)o3)C(=O)NC2=S)cc1,22µM*
NC(=O)CN1CC(O)CC1=O (configuration not stated),4%
O=C(Cc1ccccc1)Oc1ccccc1N1C(=O)CCC1=O,-9%
CN1CCN(C(=O)Cc2nc3ccccc3[nH]2)CC1,-10%
COc1ccc(-n2c(O)c(C=Nc3c(C)n(C)n(-c4ccccc4)c3=O)c(=O)[nH]c2=O)cc1,-2%
CN(C)[C@@H]1C(=O)C(C(N)=O)=C(O)[C@]2(O)C(=O)C3=C(O)c4c(O)cccc4[C@@](C)(O)[C@H]3[C@H](O)[C@@H]12,?
CCOC(=O)c1ncc2[nH]c3ccc(OCc4ccccc4)cc3c2c1COC,?
CC1CCC/C=C/C2CC(O)CC2C(O)/C=C/C(=O)O1 (configuration not stated),-11%
COC(=O)C1CN(C#N)N(c2ccc(Cl)cc2)C12c1ccccc1-c1ccccc12 (configuration not stated),14µM*
CCOP(=O)(C#CC(C)(C)C)C(O)(c1ccccc1)C(F)(F)F (configuration not stated),-7%
CN1CCN(S(=O)(=O)c2ccc(Cl)nc2)CC1,-5%
CC[C@H](CO)NC(=O)[C@H]1C=C2c3cccc4[nH]cc(c34)C[C@@H]2N(C)C1,?
CS(=O)(=O)Nc1ccc(Cc2noc(-c3ccc4[nH]cc(CCN)c4c3)n2)cc1,?
CSc1ncc(Cl)c(C(=O)O)n1 (tested in a mixture with another compound),-14%
CCC(C)(C)n1nnnc1CN1CCC(n2c(C)nc3cc(C(F)(F)F)ccc32)CC1,-15%
COc1ccc(C(c2ccc(OC)cc2)C(Cl)(Cl)Cl)cc1,-8%&-5%&-10%
Cc1ccc(-c2nc(N3CCOCC3)s[n+]2-c2ccccc2)cc1,0.16µM*
CC(=O)O[C@H]1CC[C@@]2(C)[C@@H](CC[C@H]3[C@H]2CC(=O)[C@]2(C)[C@@H]3C[C@@H](N3CC3)[C@H]2C(C)=O)C1,-8%

# Screening results (PubChem)

# Not all compounds are listed (hit frequency here may not be typical).
